AID504770: E. coli YBA685 growth inhibition, screen for V. cholerae RctB inhibitors | AID 504770 | E. coli YBA685 rctB-dependent plasmid, OD600 growth, 3 h; hits give low values | z-score (no concentration beside the values) | hit rate 0.27% among 130,000;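 active = z-score under -2 on both plates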;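 note: wells of about 30 µL received 100 nL stock; score is relative to mean and SD of the test wells; the first replicate is given; strong numbers were not always called active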
CapD inh: CapD enzyme inhibition; purified CapD enzyme, fluorescence intensity read-out; hits give low values; some hits fall short of the stated cut; z-score (concentration not given with the values); hit rate 0.23% among 140,000; AID 492967;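 active = z-score under -4 in either of two replicates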;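 note: stock transfer was 100 nL into about 40 µL; score is relative to mean and spread of the plate; one replicate is shown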
The depositor's hits bear a star; . = not tested or not shown. These rows are one share of the data; rates above refer to the full screens.

SMILES,AID504770,CapD inh
Cc1oc(-n2c(C)ccc2C)c(C#N)c1C(C)O (centres undefined),-0.2,.
O=C(OC1N=C(c2ccccc2Cl)c2cc(Br)ccc2NC1=O)c1ccccc1 (centres undefined),.,0.645
Cc1c(NC(=O)CCN2C(=O)/C(=C/c3c(Cl)cccc3Cl)SC2=S)c(=O)n(-c2ccccc2)n1C,.,0.09
CCCCNC(=O)c1sc(SCC(=O)OCC)nc1N,2.3,-1.33
CCOC(=O)c1cnc2c(ccc3ccccc32)c1Nc1ccc(C)cc1,.,-0.335
C1=C(c2cccs2)CC(c2cccs2)=NN=C1c1cccs1,-0.1,-0.215
O=C(OCC1CCCCC1)c1n[nH]c2ccccc12,-0.7,.
Nn1c(COc2ccccc2F)nnc1SCCN1C(=O)c2ccccc2C1=O,0.95,.
Cc1nc(-c2cc(C(=O)O)n(C)c2)cs1,1,.
Cc1ccc(-n2c(-c3ccc(Cl)cc3)cn3c4c(=O)n(C)c(=O)n(C)c4nc23)cc1,.,4.34
CCC(C)N(C(=O)CSc1ccc(NC(C)=O)cc1)C1CCS(=O)(=O)C1 (centres undefined),-0.55,.
Cc1cc(C)n2nc(SCCN3C(=O)c4ccccc4S3(=O)=O)nc2n1,-0.15,.
CCSC1=NC2(CCNCC2)N=C1c1ccc(OC)cc1,-0.5,0.165
CCOC(=O)n1c(CC#N)nc2ccccc21,-0.7,.
CC1CCc2c(sc3ncn(-n4cccc4)c(=O)c23)C1 (centres undefined),0.45,.
Cc1ccccc1CSc1ncc(C#N)c(N)n1,-0.35,15.2
Cc1cc(C)n(-c2nncn2/N=C/c2ccc(N3CCCCC3)s2)n1,-0.1,.
Cc1noc(C)c1S(=O)(=O)NCC1COc2ccccc2O1 (centres undefined),0.85,-0.145
COc1cc(OC)cc(C(=O)N(C)C2(c3ccccc3Cl)CCCCC2=O)c1 (centres undefined),-0.4,0.205
Cc1ccsc1C(=O)OCC(=O)Nc1ccc2[nH]c(=O)[nH]c2c1,0.55,.
CN(C(=O)c1cnccc1C(F)(F)F)c1nc2cc(Cl)ccc2s1,0.5,0.805
CSC(=S)n1c2ccccc2c2ccccc21,0.1,1.03
CCOC(=O)/C(C#N)=C1/C=CN(C)C=N1,0,9.29
O=C(c1ccc2c(=O)n(Cc3ccc4c(c3)OCO4)c(=S)[nH]c2c1)N1CCN(c2ccccc2)CC1,.,0.42
CCCCS(=O)c1sc2nc3c(cc2c1N)CCCC3 (centres undefined),-0.45,0.58
O=C(CCn1c(=O)oc2ccccc21)Sc1ccc(C(F)(F)F)cc1,0.8,9.59
c1ccc2cc(-c3csnn3)ccc2c1,-0.8,-0.24
Cn1cc(C(=O)N2CCN(Cc3ccccc3)CC2)c2c3ccccc3n(C)c2c1=O,-0.45,69.7
Oc1ccccc1/C=N/c1nc2ccccc2[nH]1,0.25,-0.375
COc1ccc(N2CCN(C(=O)CSc3nnc4c5ccccc5n(CC(=O)O)c4n3)CC2)cc1,-1.15,.
Cc1cc(C(=O)Nc2cc(C(F)(F)F)ccc2N2CCOCC2)no1,0.2,3.01
COc1ccc(C2/C(=C(\O)c3ccccc3)C(=O)C(=O)N2CCCN2CCOCC2)c(OC)c1 (centres undefined),.,-0.46
O=C(/C=C/c1cccc(Oc2ccccc2)c1)N1CCOCC1,-0.25,0.065
CCOC(=O)C1CCCCN1C(=O)c1c(SC)nsc1SC (centres undefined),-1.05,-0.255
NC(CCc1nc2ccccc2[nH]1)C(=O)O (centres undefined),-0.8,.
CS(=O)(=O)c1ccc2c(c1)[nH]c(=S)n2Cc1ccccc1,.,-0.455
C1=CCC(CNCc2ccc3c(c2)OCO3)CC1 (centres undefined),-1.1,.
O=C(Cc1ccc(Cl)cc1)Nc1cccc(-c2ccc(N3CCOCC3)nn2)c1,0.25,.
COC(=O)c1ccc(NCC(=O)c2ccccc2)cc1,-0.25,.
Cn1cnc(S(=O)(=O)NCC2CCN(C(=O)OC(C)(C)C)CC2)c1,-0.55,0.565
Cc1ccc(Cl)cc1N1CCN(C(=O)C2(c3ccccc3)CC2)CC1,0.25,.
NC(N)=N/N=C/c1cccs1,-0.45,-1.56
O=C(CCCn1sc2ccccc2c1=O)NC1CCCC1,0.25,0.64
COc1ccc(OC)c(S(=O)(=O)N(C)Cc2ccccc2)c1,-0.6,0.46
O=C(O)CN1CCCC1=O,0.4,.
CCOC(=O)C1=C(C)NC2=C(C(=O)C(C(=O)OCC)C(c3ccc(OC)cc3)C2)C1c1ccc(Cl)cc1 (centres undefined),.,2.02
CCCCCOC(=O)C1=C(C)N(C)C(=O)NC1c1cc(Br)c(O)c(OC)c1 (centres undefined),.,0.135
Cc1cc2c(cn1)C(=Nc1ccccc1C)c1ccccc1-2,-0.5,-0.09
C/C(=N\O)c1cn(C)c2ccccc12,-0.55,1.77
CNS(=O)(=O)c1cc(Br)ccc1I,0.35,-0.2
COc1cnc(-c2cccc(C(F)(F)F)c2)nc1Sc1ccccc1,.,-0.675
Cc1c(NC(=O)c2cnn3c(C(F)(F)F)cc(-c4ccco4)nc23)c(=O)n(-c2ccccc2)n1C,.,-0.18
CCCN1C(=O)/C(=c2\sc3n(c2=O)C(c2cccs2)C(C(=O)OCC)=C(C)N=3)c2ccccc21 (centres undefined),.,-0.09
CCOc1ccc(C(=O)N2CCc3cc(OC)c(OC)cc3C2)cc1,-0.25,5.71
CCSCCOC(=O)C1=C(C)NC2=C(C(=O)CC(c3cccs3)C2)C1c1ccc2c(c1)OCO2 (centres undefined),.,1.11
CCC(Oc1ccccc1)C(=O)NCc1ccccn1 (centres undefined),-0.45,1.17

A second format for 2 compounds above.
compound: CCOc1ccc(C(=O)N2CCc3cc(OC)c(OC)cc3C2)cc1
  AID504770 = -0.25
  CapD inh = 5.71

compound: CNS(=O)(=O)c1cc(Br)ccc1I
  AID504770 = 0.35
  CapD inh = -0.2

Later entries:
SMILES,AID504770,CapD inh
Cc1ccccc1NC(=O)c1cnc(Nc2nc3ccccc3s2)nc1C,0.8,0.135
CC1(C)OC2OC(C(=O)NNC(=O)CCNC(=O)c3ccccc3)C3OC(C)(C)OC3C2O1 (centres undefined),.,-0.91
Cc1cccc(CN2CCN(C(=O)CC(C)C)CC2)c1,-0.35,0.015
COc1cc2c(cc1OC)C(CC(=O)Nc1ccccc1)C(=O)NN=C2C (centres undefined),2.8,.
O=S(=O)(c1ccc(Oc2ncnc3sc4c(c23)CCC4)cc1)N1CCOCC1,0.2,.
O=C(c1ccc(CSc2cccc3cccnc23)cc1)N1CCOCC1,-0.15,43.3
N#Cc1cnn(-c2ncnc3c2cnn3-c2ccccc2)c1N,-0.4,0.055
CCOc1ccc(NC(=O)CCn2c(=O)sc3ccccc32)cc1,-1.15,.
Cc1nn(C)c(C)c1NC(=O)CC#N,.,0.355
Cn1c2sc3c(c2c(=O)n2nnnc12)CC(C)(C)OC3,.,5.84
C=CCn1c(SCC(=O)O)nnc1-c1ccc(Cl)cc1Cl,-0.65,.
COc1ccc(C(=O)CSc2ncccn2)cc1,-0.65,-0.2
Cc1onc(-c2c(Cl)cccc2Cl)c1C(=O)Nc1cccc2c1C(=O)c1ccccc1C2=O,.,-0.15
Cc1ccc2nc(-c3ccc4nc(N)sc4c3)oc2c1,-0.2,.
O=C1OCc2cc(-n3[nH]nnc3=S)ccc21,-0.3,.
O=C(Nc1ccc(Cl)cc1)c1cnc(-c2ccccc2)nc1-c1ccccc1,.,-0.47
CCC(=O)NC(C)C12CC3CC(CC(C3)C1)C2 (centres undefined),-0.7,-0.35
Cn1c(=O)c2c(ncn2CC(O)CN2CCN(c3ncccn3)CC2)n(C)c1=O (centres undefined),0.2,0.505
S=c1[nH]c(-c2ccccc2)c(-c2ccccc2)o1,1.4,84.4
Cc1cc(C(=O)NCc2ccco2)c2ccccc2n1,0.45,.
Cc1cc(N2CCCC2)nc2ccc(NC(=S)NCCN3CCc4ccccc4C3)cc12,-0.65,19.5
O=C(C1c2ccccc2Oc2ccccc21)N(Cc1nnc(-c2ccccc2Cl)o1)C1CC1,1.45,.
COc1ccc(OCC(=O)Nc2cc(OC)ccc2NC(=O)c2ccco2)cc1,-0.75,-0.165
CC(C)(C)S(=O)(=O)c1cnc(-c2cnccn2)nc1N,0.65,0.405

An excerpt from further up, for reference:
SMILES,AID504770,CapD inh
Cc1cc(N2CCCC2)nc2ccc(NC(=S)NCCN3CCc4ccccc4C3)cc12,-0.65,19.5
O=C(C1c2ccccc2Oc2ccccc21)N(Cc1nnc(-c2ccccc2Cl)o1)C1CC1,1.45,.
COc1ccc(OCC(=O)Nc2cc(OC)ccc2NC(=O)c2ccco2)cc1,-0.75,-0.165
CC(C)(C)S(=O)(=O)c1cnc(-c2cnccn2)nc1N,0.65,0.405

(more compounds)
SMILES,AID504770,CapD inh
CC(CCc1ccccc1)NC(=O)CN1C(=O)c2ccccc2S1(=O)=O (centres undefined),-0.05,0.43
CCOC(=O)c1c(C)oc2ccc(N(C(=O)c3ccccc3)S(=O)(=O)c3ccc(Br)cc3)cc12,.,-0.075
CC(=O)N1CCc2cc(C(=O)CN3CCN(Cc4ccccc4)CC3)ccc21,0.4,0.125
CC(C)N1CN=C2SC(CO)(CO)C(=O)N2C1,-0.65,0.065
CC(C)(C)NCC(=O)Nc1cc(C(C)(C)C)nn1-c1ccccc1,-0.25,.
NNc1ccc(Cl)c(C(=O)O)c1,-0.05,0.5
COc1ccc(S(=O)(=O)N(C(C)=O)c2ccc3oc(=O)sc3c2)cc1,-0.65,-3.3
CC(C)(C)c1ccc(N2C(=N)SCC2=O)cc1,.,0.245
CCNC(=S)N1CCn2cccc2C1c1ccc(C)cc1 (centres undefined),1.55,.
CN(C)C1N(C(=O)c2cccc([N+](=O)[O-])c2)N=C2c3ccccc3S(=O)(=O)N21 (centres undefined),.,0.49
CCn1cnc2cc(NS(=O)(=O)c3ccc(C)cc3)ccc21,-0.4,-0.79
CCCCOc1ccc(C2C=C(Nc3ccc(F)cc3)C(=O)N2c2ccc(F)cc2)cc1 (centres undefined),.,-0.075
O=C1NC(=O)N(Cc2ccco2)C(=O)/C1=C\c1ccco1,-0.55,.
CN1CCN(CC(=O)N2c3ccccc3Sc3ccc(Cl)cc32)CC1,0.3,-0.66
Cc1[nH]c2ccc(C(=O)NC(C)C)cc2c1C,-0.1,0.965
CCN(CC)C(=O)c1cc(-c2ccc(Br)cc2)on1,-0.2,-0.62
COc1ccccc1N1CCN(S(=O)(=O)c2cc(Cl)c(Cl)cc2Cl)CC1,.,0
COC(=O)c1ccccc1SCC(=O)c1cc(Cl)sc1Cl,.,-0.13
O=C(c1cccnc1)N1CCN(CCN2C(=O)C3C4C=CC(C4)C3C2=O)CC1 (centres undefined),0.3,.
CCCN(Cc1nnc(-c2ccco2)o1)C(=O)c1ccccc1SCC(=O)N1CCCC1,-0.8,.
COc1cc(/C=C2\NC(=S)N(C)C2=O)ccc1OCc1ccccc1Cl,-0.4,0.375
O=c1[nH]c(=S)[nH]c(O)c1N=Nc1ccc(O)cc1,-2.05,-3.94*
CC(=O)N/C(N)=N/c1nc2ccccc2s1,-0.8,-0.725
CSc1nc2ccccc2n1CN1CCN(Cc2cccs2)CC1,1.2,.
CN(C=O)CP(=O)(O)CCc1ccccc1,-0.25,2.29
CCOC(=O)C1=C(C)NC(SCC(N)=O)=C(C#N)C1c1ccccc1 (centres undefined),-0.6,0.465
COC(=O)C1=c2s/c(=C/c3ccccc3)c(=O)n2C(N)=C(C#N)C1c1ccccc1 (centres undefined),.,0.92
COc1ccc(-c2nc(-c3ccccc3)c(-c3ccccc3)[nH]2)c(OC)c1OC,.,42.2
Cc1cnc(Nc2nc3ccccc3o2)nc1C(=O)Nc1cccc(C(F)(F)F)c1,-0.05,0.09
COc1ccc2c(c1)N(C)/C(=c1/s/c(=C3/C(=O)N(C)C(=S)N3C)n(Cc3ccccc3)c1=O)S2,.,-0.28
NC(N)=NS(=O)(=O)c1ccc(NC(=O)/C=C/C(=O)O)cc1,-0.75,-0.39
Cc1csc(NC(=O)c2c(O)c3cccc4c3n(c2=O)CCC4)n1,-0.65,.

A different layout for part of the listing above:
Every second line gives: AID504770	CapD inh
- COc1ccc2c(c1)N(C)/C(=c1/s/c(=C3/C(=O)N(C)C(=S)N3C)n(Cc3ccccc3)c1=O)S2
    .	-0.28
- NC(N)=NS(=O)(=O)c1ccc(NC(=O)/C=C/C(=O)O)cc1
    -0.75	-0.39
- Cc1csc(NC(=O)c2c(O)c3cccc4c3n(c2=O)CCC4)n1
    -0.65	.

Other structures follow:
SMILES,AID504770,CapD inh
CCc1nc(-c2ccccc2)c2ccccn12,-0.3,3.09
O=C(CC1SC(=NCC2CCCO2)NC1=O)Nc1cccc2ccccc12 (centres undefined),0.95,.
O=C(COc1ccccc1)OCC(=O)c1ccc(O)cc1O,-1.65,.
Cc1[nH]nc2c1C(c1cc([N+](=O)[O-])ccc1OCc1cccc(F)c1)C(C#N)=C(N)O2 (centres undefined),.,-0.16
COc1ccccc1N(C=O)/C=C1\Sc2ccccc2C1=O,.,-3.84
O=C(COC(=O)c1ccccc1NCc1ccco1)c1ccc(Cl)cc1,-0.5,10
O=C(NCc1csc2ccccc12)c1cc(F)cc2c1OCOC2,-0.1,0.63
COc1ccc(C2(c3ccc(O)cc3O)CC(c3ccccc3Cl)NC(=S)N2)cc1 (centres undefined),.,0.55
CC(C)(C)NC(=O)NCc1n[nH]c(=O)c2ccccc12,-0.7,.
